Compound activity: PubChem BioAssay, Broad Institute
T cruzi inh: T. cruzi replication inhibition | T. cruzi beta-gal in NIH3T3, luminescence, 90 h | inhibition, % (test concentration not listed) | hit rate 1.4% among 300,000;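 active = mean inhibition across valid replicates above about 55%, limit read from the data; inconclusive = mean below that limit but half or more replicates reach it; inactive = mean below it, under half of replicates reach it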;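 note: signal also drops with host cell toxicity which is not excluded here; 0% = plate median of DMSO wells and 100% = zero luminescence signal; higher percent means less beta-gal luminescence so fewer parasites; stock transfer was 50 nL into about 50 µL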
Calb FLC: affects C. albicans growth with fluconazole. hit rate 0.57% among 300,000. C. albicans CaCi-2 (fluconazole-resistant clinical isolate) + fluconazole, Alamar Blue growth, 48 h. growth inhibition, % (no concentration beside the values);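 active = most replicates above 75%; inconclusive = exactly half above 75%; inactive = most below 75%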;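 note: all wells also contain fluconazole at 8 µg/ml as a sub-toxic cotreatment; 0% = median of DMSO wells and 100% = median of geldanamycin control wells; wells of about 8 µL received 7.5 nL stock; the first replicate is given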
FGF22 binding: binders of recombinant human FGF22 by thermal shift; Q9HCT0; SYPRO orange fluorescence; percent of sucrose octasulfate shift, DMSO zero; calls only at 9.99 µM; hit rate 1.5% among 340,000; AID 651658;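 active = melting point raised past a set limit in the mean and every replicate; inconclusive = no clear call; three in four hits are not shown here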
Target sequence (Q9HCT0 whole entry, looked up): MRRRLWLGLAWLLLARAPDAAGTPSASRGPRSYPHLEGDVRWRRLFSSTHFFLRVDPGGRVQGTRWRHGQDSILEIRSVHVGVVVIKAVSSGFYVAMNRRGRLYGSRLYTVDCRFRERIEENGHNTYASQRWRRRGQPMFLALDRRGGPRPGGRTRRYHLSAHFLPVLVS
RanGTP-Imp inh: inhibitors of RanGTP-importin-beta interaction, primary screen, biochemical, FRET, CFP-Ran, YFP-importin-beta, homogeneous. cell-free CFP-Ran/YFP-importin-beta FRET ratio. inhibition, % (test concentration not listed). hit rate 1.1% among 300,000;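 active = most replicates above 15%; inconclusive = exactly half above 15%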;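 note: 0% = DMSO wells and 100% = Ran loaded with GDP instead of GTP; wells of about 40 µL received 100 nL stock; the first replicate is given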
Beta cell apopt: beta cell apoptosis inhibition | hit rate 0.8% among 300,000 | protection from apoptosis, % (no concentration beside the values) | INS-1E cytokine-induced death, ATP luminescence, 48 h; percent of positive-control rescue, neutral wells zero;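 active = all replicates at 75% or more, or half of them and the mean; inconclusive = half reach 75% but not the mean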;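 note: 0% = cytokine-treated negative control wells and 100% = positive control rescue; higher means more ATP so stronger rescue from cytokine killing; wells of about 40 µL received 100 nL stock; the first replicate is given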
ALR H2O2 inh: blocks human ALR sulfhydryl oxidase activity; P55789; purified ALR, DTT oxidation, H2O2 HRP-luminol luminescence; inhibition, % (concentration not given with the values); hit rate 3.8% among 290,000;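 active = mean and each replicate at 75% or more; inconclusive = only one of the two met; inactive = neither met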;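 note: stock transfer was 7.5 nL into about 7.5 µL; 0% = neutral wells and 100% = wells with inactivated enzyme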
Target sequence (P55789 whole entry, looked up): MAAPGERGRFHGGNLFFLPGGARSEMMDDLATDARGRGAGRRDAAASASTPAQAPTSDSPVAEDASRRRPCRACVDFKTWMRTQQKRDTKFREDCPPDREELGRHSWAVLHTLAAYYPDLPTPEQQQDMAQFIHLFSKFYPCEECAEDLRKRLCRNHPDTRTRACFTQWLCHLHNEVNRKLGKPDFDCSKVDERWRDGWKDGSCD
AF4-AF9 inh: MLL-AF4/AF9 protein interaction inhibition; P42568; AlphaScreen, biotin-AF4 peptide binding to FLAG-AF9; inhibition, % at 10 µM; hit rate 0.47% among 350,000; AID 651704;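 active = every replicate reaching a set inhibition limit, whatever the replicate mean, cut at about 25% in these data; inconclusive = mean inhibition reaches that limit but some replicates miss it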;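 note: 0% = plate neutral control median and 100% = total signal loss; the record names both 10 and 1 µM as test concentration; the first replicate is given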
Target sequence (P42568 whole entry, looked up): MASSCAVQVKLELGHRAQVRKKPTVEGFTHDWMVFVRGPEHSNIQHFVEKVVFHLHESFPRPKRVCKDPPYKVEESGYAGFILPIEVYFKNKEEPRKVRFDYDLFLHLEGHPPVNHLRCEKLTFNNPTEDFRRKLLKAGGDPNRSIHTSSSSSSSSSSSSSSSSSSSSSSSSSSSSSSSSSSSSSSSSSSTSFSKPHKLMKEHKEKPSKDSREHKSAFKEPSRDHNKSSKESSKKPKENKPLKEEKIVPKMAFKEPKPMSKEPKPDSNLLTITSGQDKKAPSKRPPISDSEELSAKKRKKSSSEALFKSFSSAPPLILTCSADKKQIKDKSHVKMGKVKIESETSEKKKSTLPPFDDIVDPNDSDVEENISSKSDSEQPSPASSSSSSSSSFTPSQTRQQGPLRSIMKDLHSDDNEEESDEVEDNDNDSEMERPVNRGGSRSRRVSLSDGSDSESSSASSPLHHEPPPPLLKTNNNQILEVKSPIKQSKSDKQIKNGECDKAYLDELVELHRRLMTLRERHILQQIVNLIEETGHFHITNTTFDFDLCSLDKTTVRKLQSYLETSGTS
rRNA inh HTS: inhibitors of bacterial rRNA selective over humanized ribosomes. GFP signal change (wild-type ribosome), % (no concentration beside the values). E. coli WT GFP vs humanized-ribosome RFP mutants, fluorescence, 24 h; hits give low values; DMSO median 0, no signal -100. hit rate 1.6% among 350,000;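 active = significant combined selectivity score with lowered wild-type GFP, culture density cut under 30%, mutant RFP and density less affected; inactive = any of these conditions unmet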; note: one replicate is shown; some compounds called inactive have numbers as strong as hits
rRNA inh HTS OD600: second read-out of rRNA inh HTS, no call of its own (marks repeat the call); OD600 change, %; measured here: OD600 growth;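 optical density of the mix in the first replicate; 0 = DMSO median and -100 = no signal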
rRNA inh HTS RFP: also measured in rRNA inh HTS; calls as there; RFP signal change, %; measured here: RFP humanized mutant strains;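 first replicate; 0 = DMSO median and -100 = no signal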
* = called active by the depositor; i = inactive; ? = inconclusive; / = not tested or not shown. Some of the compounds tested; the hit share may differ from the screen's.

Below each compound – FGF22 binding | ALR H2O2 inh | rRNA inh HTS OD600 | rRNA inh HTS RFP | T cruzi inh | Beta cell apopt | Calb FLC | AF4-AF9 inh | rRNA inh HTS | RanGTP-Imp inh
> CCOC(=O)N1CCN(C(=O)c2ccc3c(c2)N(Cc2ccc(C)cc2)CCS3)CC1
→ / | 93.4* | / | / | 35.2 | 21.4 | -5.3 | / | / | 1.5
> CC(O)CNC(=O)C1CCN(Cc2ccc(OCc3ccccc3)cc2)CC1 (stereo not given)
→ / | -7.6 | / | / | 0.3 | -11.8 | -10.7 | / | / | -2.3
> CCCC(C)NC(=O)COC(=O)c1cccc(NS(C)(=O)=O)c1 (stereo not given)
→ i | -0.3 | -3.7 | 13.4 | -24.3 | -8.5 | ? | -11.6 | 2.7 | 2.3
> CCOc1ccc(-n2c(C)c(C(=O)O)c3cc(OC)ccc32)cc1
→ i | -1.4 | -1.3 | -4.1 | -2.1 | / | 0.6 | 0.1 | 7.9 | 2.5
> Cc1ccc(-c2cc(C(F)F)n3ncc(C(=O)N4CCCc5ccccc54)c3n2)cc1
→ / | -23.4 | / | / | 9.6 | 7.3 | 2.1 | / | / | 12.4
> COc1ccc(-c2csc(NC(=O)CC(NC(C)=O)c3ccccc3)n2)cc1OC (stereo not given)
→ i | 8.0 | -12.4* | 5.3* | 2.5 | -4.1 | -4.1 | 1.2 | -27.7* | 3.7
> CN(C)CCOC(C1CCCCC1)C1CCCCC1
→ i | -3.7 | -80.1 | -29.6 | 20.3 | -5.7 | -11.9 | 7.2 | -51.4 | ?
> O=C(COc1coc(CN2CCN(c3ccccc3)CC2)cc1=O)NCC1CCCO1 (stereo not given)
→ / | 93.4* | 14.2 | -0.6 | 0.4 | / | 7.9 | 1.2 | 7.8 | 0.3
> CCN1C(=O)[C@H]2[C@@H](c3ccc(C)cc3)N3C(=O)N(c4cccc(F)c4)C(=O)[C@@]3(C)[C@H]2C1=O
→ i | / | 11.5 | -1.2 | -4.0 | -1.1 | -4.3 | 1.3 | 5.0 | 9.8
> O=C(O)c1cccnc1Nc1ccc(Cl)cc1
→ / | 1.3 | -45.8 | -12.9 | 7.1 | 0.9 | 27.8 | -1.4 | -22.6 | 1.4
> C#CCOCCOCCOCCNc1nc(N2CCN(C(=O)C([C@@H](C)CC)n3cc(C(N)COC(=O)C(F)(F)F)nn3)CC2)nc(N2CCN(C(=O)[C@H](CCCCN)n3cc(C(N)CC(C)C)nn3)CC2)n1 (stereo not given in full)
→ / | / | / | / | -11.9 | -2.9 | 4.0 | / | / | -3.2
> Cc1ccccc1OCC(=O)N1N=C(c2cccnc2)CC1(O)C(F)(F)F (stereo not given)
→ i | 12.6 | -25.6 | 7.2 | -6.4 | -6.4 | -27.6 | 0.5 | -14.1 | ?
> CCN1CCN(c2ccc(NC(=O)CCc3c(C)nc4c(-c5ccc(F)cc5)c(C)nn4c3C)cc2)CC1
→ i | -0.1 | -4.1 | 2.9 | 64.3* | 11.8 | ? | 16.8 | 7.8 | 0.6
> c1ccc(CSc2nnc3ccc(-c4cccs4)nn23)nc1
→ i | -3.7 | -0.4 | -2.6 | -0.8 | -3.6 | 3.4 | -3.3 | 9.3 | -2.5
> CC(=O)N1CCN(S(=O)(=O)c2cccc(C(=O)Nc3cc(C(F)(F)F)ccc3N3CCOCC3)c2)CC1
→ i | -1.9 | 10.3 | -2.4 | 2.5 | / | -3.1 | -0.4 | 7.8 | -2.4
> Cc1cccc(OCCC(=O)Nc2ccc(F)c(Cl)c2)c1
→ i | 61.7 | -71.0 | -11.4 | 0.3 | -2.3 | -21.1 | -0.8 | -44.7 | 4.5
> Cc1cccc(CCNC(=O)c2cccc3c2C(=O)N(C2CCCCC2)C3)c1
→ i | -0.4 | 7.1 | 4.7 | 28.4 | 11.6 | 0.6 | -4.6 | 5.9 | -2.8
> CSc1ccccc1-c1nc(-c2ccncc2)no1
→ i | -4.7 | 1.2 | -0.1 | 12.6 | -3.6 | 3.4 | -0.5 | 4.7 | -0.8
> CCOc1ccc2oc(C(=O)Nc3cc(C)ccn3)c(C)c2c1
→ i | 3.0 | -3.9 | -2.4 | 7.3 | 18.5 | 15.9 | -0.6 | -1.8 | 2.3
> CCCc1nnc(SCC(=O)N2CCCC(C)C2)n1CC1CCCO1 (stereo not given)
→ / | -11.3 | / | / | -22.8 | -2.2 | -6.0 | / | / | -4.5
> O=C(CSc1nnc(NC2CC2)s1)c1ccc[nH]1
→ i | 17.4 | 13.0 | 3.9 | / | -0.8 | / | 0.3 | -15.3 | /
> COC(=O)c1cc(OC)c(OC)cc1NC(=O)CCc1ccc(C)o1
→ / | 5.7 | / | / | -1.0 | 0.9 | 2.4 | / | / | -0.4
> Cc1cccc(-n2c(SCCC(=O)O)nnc2-c2cccs2)c1C
→ / | -18.6 | / | / | -7.5 | -1.1 | -3.4 | / | / | 3.6
> Cc1cc2ccccc2n2c(SCC(=O)N3CCOCC3)nnc12
→ i | -9.0 | 12.2 | 0.6 | 5.7 | / | 21.1 | -2.3 | -3.6 | -2.6
> CN1CCc2c1nc1ccccc1c2N (tested in a mixture with another compound)
→ i | -0.1 | -15.6 | -1.4 | 4.8 | / | -24.1 | -1.1 | -16.6 | ?
> O=C(COC(=O)c1ccccc1NCCO)NCC1CCCCC1
→ i | -1.1 | / | / | / | -4.4 | / | -3.1 | / | /
> C=CCn1c(SCc2csc(C)n2)nc2scc(-c3ccc(C)o3)c2c1=O
→ i | 16.6 | 0.8 | 33.2 | -3.3 | -0.2 | 0.5 | 3.9 | -5.1 | -2.1
> CN1C(=O)c2ccc(N(C)C)cc2C1=O
→ / | 3.4 | / | / | -6.8 | 0.7 | -6.8 | / | / | -2.3
> C=CCN(Cc1nc(-c2ccccc2)no1)C(=O)c1ccoc1C
→ i | -0.8 | -8.7 | 4.4 | -0.2 | -1.6 | -5.5 | 2.7 | -1.2 | -4.7
> CCN(CC)C(=O)CN1CCC(n2c(C)nc3cc(C(F)(F)F)ccc32)CC1
→ / | / | / | / | -0.3 | 3.3 | -6.5 | / | / | 0.6

Below each compound – FGF22 binding | ALR H2O2 inh | rRNA inh HTS OD600 | rRNA inh HTS RFP | T cruzi inh | Beta cell apopt | Calb FLC | AF4-AF9 inh | rRNA inh HTS | RanGTP-Imp inh
> O=C(CCCn1c(=S)[nH]c2ccsc2c1=O)NCCc1ccccc1
→ i | -2.3 | 0.7 | -0.8 | -21.1 | 6.4 | -7.3 | -25.6 | 0.8 | 3.0
> C=CCOc1ccc(C2/C(=C(\O)c3c(C)[nH]c(C(=O)OC)c3C)C(=O)C(=O)N2CCN(C)C)cc1 (stereo not given)
→ / | -5.7 | 6.9 | -2.1 | -16.0 | -3.6 | -4.8 | / | -1.1 | -0.3
> O=C(O)C1CSC(c2coc3ccccc3c2=O)N1 (stereo not given)
→ i | 98.7* | 0.9 | -1.3 | -11.7 | -9.7 | 0.0 | -0.2 | 4.1 | ?
> Cc1ccc(C)c(NC(=O)c2cnc3n(c2=O)CCS3)c1
→ i | 10.3 | 20.6 | 0.4 | -11.5 | 1.5 | 13.1 | -0.4 | 13.2 | 0.7
> CCOC(=O)N1CCN(C(=O)c2ccc(-n3c(C)ccc3C)cc2)CC1
→ / | / | / | / | -11.8 | -5.6 | -10.0 | / | / | 3.6
> COc1ccc(C2(O)CCN(CC(=O)Nc3nc(-c4ccccc4)cs3)CC2)cc1
→ i | 25.1 | -43.9 | -2.8 | 13.0 | -5.6 | -1.2 | -0.4 | -30.8 | 4.5
> O=C(c1cc(Cl)c(=O)n(Cc2ccccc2)c1)N1CCOCC1
→ / | -17.2 | / | / | -11.0 | -4.5 | 2.6 | / | / | 0.2
> c1csc(CCNc2ncnc3sc4c(c23)CCC4)c1
→ i | -5.9 | -68.9 | -10.3 | -1.1 | / | 33.5 | -8.3 | -43.2 | -1.0
> CC(=O)Nc1cccc(C(=O)OCC(=O)Nc2nnc(-c3ccccc3)o2)c1
→ i | 32.9 | -32.2 | 3.0 | -2.0 | 1.4 | / | -23.2 | -5.2 | -1.7
> Cc1ccc(NC(=O)CN2C(=O)NC3(CCCC3)C2=O)cc1S(=O)(=O)N1CCCCC1
→ i | / | -7.4 | 2.3 | / | -5.5 | / | 6.1 | -4.1 | /
> CC(=O)c1sc(NC(=O)C2CSC3(C)CCC(=O)N23)nc1-c1ccccc1 (stereo not given)
→ i | 12.2 | -8.5 | 1.2 | -11.2 | -5.8 | 13.4 | 1.4 | -3.8 | 1.7
> Cc1ccc(/C=N/Nc2cccc(C(=O)O)c2)s1
→ / | 98.3* | / | / | -13.0 | / | -4.3 | / | / | 0.3
> CCC1C(=O)N=C(SCC(=O)Nc2ccc(C)cc2)N(c2ccccc2)C1=O (stereo not given)
→ i | / | -8.3 | -1.7 | -5.9 | -11.0 | 10.8 | -2.5 | -15.3 | 1.3
> COC(=O)c1sccc1-c1ccc(/C=N/OCc2c(Cl)cccc2Cl)o1
→ / | -1.9 | / | / | 9.6 | 2.5 | ? | / | / | 1.7
> CSCC[C@H](NC(=O)c1nn(C)c(=O)c2ccccc12)c1nc2ccccc2[nH]1
→ / | / | / | / | 1.3 | -6.7 | 4.7 | / | / | -0.4
> Cc1ncc(CN2CCC(CO)(CCc3ccccc3)CC2)s1
→ i | -5.4 | -1.3 | -1.3 | 10.6 | 4.2 | 4.0 | 1.2 | 9.4 | 7.1
> O=C(Cn1nc(-c2ccccc2Cl)ccc1=O)Nc1ccccc1-c1ccccc1
→ i | -12.4 | -59.4 | -11.4 | 17.3 | 6.2 | 7.4 | 1.4 | -44.1 | 0.5
> NC(=O)C1CCN(C(=O)c2ccc(-c3ccccc3Cl)o2)CC1
→ i | -1.1 | -18.1 | -1.8 | / | -5.5 | / | 0.2 | -11.0 | /
> CC(=O)Oc1cccc(N2C(=O)CC(Nc3ccc(N4CCOCC4)cc3)C2=O)c1 (stereo not given)
→ / | 97.2* | / | / | -2.3 | -3.8 | -3.6 | / | / | -1.9
> CCc1csc(CCNC(=O)C2CCC(=O)N(Cc3cccc(C(F)(F)F)c3)C2)n1 (stereo not given)
→ i | -2.5 | 7.5 | -1.8 | -8.8 | 2.3 | -1.8 | -1.6 | 2.8 | -1.3
> Cc1nc2ccc(NC(=O)c3ccc(S(=O)(=O)N(C)C)cc3)cc2s1
→ / | / | -6.7 | -3.4 | -5.2 | -1.8 | 4.1 | -5.4 | -18.1 | 25.9
> CCOc1ccc(C(=O)NCCCn2ccnc2)cc1
→ / | -1.4 | / | / | -11.3 | 3.9 | -6.4 | / | / | 6.6
> CCc1ccccc1NC(=O)c1cc([N+](=O)[O-])ccc1N1CCOCC1
→ i | -2.1 | 5.4 | -2.4 | 1.1 | -1.1 | 3.1 | 1.6 | 9.5 | -1.0
> Cc1ccc(C(=O)N/N=C/c2ccc(OC(=O)c3ccccc3Cl)cc2)cn1
→ i | -14.8 | 2.1 | -0.8 | -3.6 | -2.9 | 61.3 | -2.7 | -3.9 | 1.7
> CC(=O)OC(C(=O)NCCc1ccccc1)c1cccnc1 (stereo not given)
→ / | -13.2 | / | / | -13.3 | -5.9 | -15.5 | / | / | 2.1
> COc1ccccc1NC(=O)c1ccc2nc(N3C(=O)CCC3=O)sc2c1
→ / | 29.6 | / | / | -1.4 | -6.3 | -2.2 | / | / | ?
